Screens (PubChem)
E coli growth – blocks Escherichia coli growth. OD600, 23 h; active compounds read low. OD600 absorbance (no concentration beside the values). 0.21% of 330,000 active. AID 1053175;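 active = OD600 absorbance below the run mean of sample wells minus 3.6 SD, in any replicate, cut at about 0.56 in these data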;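 also: stock transfer was 300 nL into about 60 µL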
UCH37 DUB inh – blocks the human deubiquitinase UCH37 | Q9Y5K5 | purified proteasome/UCH37, Ub-AMC cleavage fluorescence | inhibition, % (no concentration beside the values) | 0.33% of 330,000 active;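 active = mean of two replicates above 20%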;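 also: 0% = compound-free wells with enzyme and 100% = wells lacking proteasome; stock transfer was 100 nL into about 20 µL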
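Material: Human UCH37 enzyme supplied as purified proteasome complex | Schedule: 30 min compound-proteasome preincubation then 25 min substrate reaction, room temperature | Detection: AMC fluorescence from Ub-AMC cleavage, excitation 355 nm, emission 460 nm | Benchmarks: Wells without proteasome as full block, compound-free enzyme plus substrate as uninhibited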
Beta apoptosis – blocks beta cell apoptosis; AID 435005; protection from apoptosis, % (no concentration beside the values); INS-1E cytokine-induced death, ATP luminescence, 48 h; percent of positive-control rescue, neutral wells zero; 0.8% of 300,000 active;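 active = all replicates at 75% or more, or half of them and the mean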;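 also: 0% = cytokine-treated negative control wells and 100% = positive control rescue; higher means more ATP so stronger rescue from cytokine killing; wells of about 40 µL received 100 nL stock; the first replicate is given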
FGF22 binding – binders of recombinant human FGF22 by thermal shift. Q9HCT0. SYPRO orange fluorescence; percent of sucrose octasulfate shift, DMSO zero. calls only at 9.99 µM. 1.5% of 340,000 active. AID 651658;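 active = melting point raised past a set limit in the mean and every replicate; three in four hits are not shown here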
Target sequence (Q9HCT0 whole entry, looked up): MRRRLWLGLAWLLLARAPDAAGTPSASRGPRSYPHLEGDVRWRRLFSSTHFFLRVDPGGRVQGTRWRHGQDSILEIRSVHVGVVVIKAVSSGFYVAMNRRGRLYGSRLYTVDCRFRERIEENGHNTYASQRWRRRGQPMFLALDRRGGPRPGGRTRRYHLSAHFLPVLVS
A1 inh – inhibitors of the anti-apoptotic protein A1, read as caspase activation; MEF A1-2A-BIM cells, Caspase-Glo 3/7 luminescence, 3 h; percent of clofoctol response, vehicle zero; caspase activation, % (no concentration beside the values); 0.066% of 330,000 active;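 active = over half of replicate activation scores above 10%, or exactly half above 10 with the replicate mean above 10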;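 also: wells of about 30 µL received 50 nL stock; many hits fall short of the cut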
AF4-AF9 inh – inhibitors of human MLL-AF4/AF9 interaction; P42568; AlphaScreen, biotin-AF4 peptide binding to FLAG-AF9; inhibition, % at 10 µM; 0.47% of 350,000 active;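 active = every replicate reaching a set inhibition limit, whatever the replicate mean, cut at about 25% in these data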;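 also: 0% = plate neutral control median and 100% = total signal loss; the record names both 10 and 1 µM as test concentration; the first replicate is given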
Target sequence (P42568 whole entry, looked up): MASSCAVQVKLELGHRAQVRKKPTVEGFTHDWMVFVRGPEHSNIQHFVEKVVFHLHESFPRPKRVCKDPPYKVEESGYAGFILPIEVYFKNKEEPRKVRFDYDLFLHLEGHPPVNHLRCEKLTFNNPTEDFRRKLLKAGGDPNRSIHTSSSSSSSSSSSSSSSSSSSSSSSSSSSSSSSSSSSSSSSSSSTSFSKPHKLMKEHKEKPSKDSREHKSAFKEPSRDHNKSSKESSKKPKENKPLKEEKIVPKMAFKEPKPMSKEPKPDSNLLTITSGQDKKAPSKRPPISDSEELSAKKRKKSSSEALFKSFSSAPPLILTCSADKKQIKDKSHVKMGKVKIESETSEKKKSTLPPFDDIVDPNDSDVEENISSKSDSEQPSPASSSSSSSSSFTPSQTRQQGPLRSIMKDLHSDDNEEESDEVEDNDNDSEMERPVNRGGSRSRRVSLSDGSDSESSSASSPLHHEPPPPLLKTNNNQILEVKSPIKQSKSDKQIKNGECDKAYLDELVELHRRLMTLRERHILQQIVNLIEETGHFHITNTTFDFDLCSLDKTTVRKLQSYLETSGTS
T cruzi inh – blocks replication of Trypanosoma cruzi; 1.4% of 300,000 active; inhibition, % (no concentration beside the values); T. cruzi beta-gal in NIH3T3, luminescence, 90 h; AID 1885;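 active = mean inhibition across valid replicates above about 55%, limit read from the data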;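 also: signal also drops with host cell toxicity which is not excluded here; 0% = plate median of DMSO wells and 100% = zero luminescence signal; higher percent means less beta-gal luminescence so fewer parasites; stock transfer was 50 nL into about 50 µL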
Ecoli rRNA inh – selective bacterial rRNA inhibition in E. coli. 1.6% of 350,000 active. GFP signal change (wild-type ribosome), % (concentration not given with the values). AID 720706. E. coli WT GFP vs humanized-ribosome RFP mutants, fluorescence, 24 h; active compounds read low; DMSO median 0, no signal -100;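 active = significant combined selectivity score with lowered wild-type GFP, culture density cut under 30%, mutant RFP and density less affected; inactive = any of these conditions unmet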; also: one replicate is shown; some compounds called inactive have numbers as strong as hits
Ecoli rRNA inh OD600 – second read-out of Ecoli rRNA inh, no call of its own (marks repeat the call); OD600 change, %; measured here: OD600 growth;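 optical density of the mix in the first replicate; 0 = DMSO median and -100 = no signal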
Ecoli rRNA inh RFP – second read-out of Ecoli rRNA inh, no call of its own (marks repeat the call); RFP signal change, %; measured here: RFP humanized mutant strains;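 first replicate; 0 = DMSO median and -100 = no signal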
* marks the source's active call; other numbers are inactive results; i = inactive; . = not tested or not shown. A portion of the library (hit frequency here may not be typical).

SMILES | E coli growth | UCH37 DUB inh | Beta apoptosis | FGF22 binding | A1 inh | AF4-AF9 inh | T cruzi inh | Ecoli rRNA inh | Ecoli rRNA inh OD600 | Ecoli rRNA inh RFP
c1ccc(-c2nc3nonc3c3nc4ccccc4n23)cc1 | 0.66 | -61 | 7 | i | -0.2 | -4.8 | -9 | 6 | 7 | -0.6
NC(=O)COC(=O)c1ccccc1OCc1ccccc1 | . | . | -1 | i | 1.2 | 0.4 | -12 | 7 | 4 | -4.6
CCOc1ccccc1N1CC(C(=O)Nc2cc(S(C)(=O)=O)ccc2Cl)CC1=O (centres undefined) | 0.68 | -0.5 | -12 | . | -0.9 | -11 | 1 | -2 | 0 | -0.9
CC(C)(C)NC(=O)CSc1nc(N)cc(=O)[nH]1 | 0.65 | 3.4 | 8 | i | -1.0 | -2.3 | 1 | 21 | 17 | 4.6
O=C(CN1CCOCC1)Nc1ncccn1 | 0.72 | 0.5 | -3 | . | 0.0 | . | -4 | . | . | .
CCOC(=O)c1ccc2ncc(C(=O)OCC)c(NCCN(C)C)c2c1 | 0.72 | -7.5 | -4 | i | -0.4 | 2.1 | 19 | 30 | 5 | 1.1
COc1ccc(Cl)cc1NC(=O)CSc1nnc(Cc2cccn2C)n1-c1ccc(F)cc1 | 0.78 | 5.6 | 2 | . | -0.4 | 3.1 | 4 | -12 | -17 | 1.6
CSc1ccc(C(=O)C2CCCN(C(=O)CCc3c(C)nn(C)c3C)C2)cc1 (centres undefined) | 0.68 | 2.2 | 29 | i | -0.1 | 0.5 | 1 | -16 | -19 | 1.7
O=C1COc2ccc(C(=O)COC(=O)c3nc(Cl)ccc3Cl)cc2N1 | 0.7 | 0.9 | . | i | . | -1.7 | . | 12 | 8 | 0.6
Cc1cccc(N2CCN(C(=O)c3cccn4c(=O)c5c(C)c(C)sc5nc34)CC2)c1C | 0.75 | -203 | -4 | . | 0.2 | . | 16 | . | . | .
CC(C)OC(=O)COc1cc(O)c2c(=O)cc(-c3ccccc3)oc2c1 | 0.71 | 7.2 | -1 | i | -0.4 | 1.6 | 6 | 17 | 15 | 2.6
Cc1nn(C)c(C)c1C1Nc2ccccc2C(=O)N1O (centres undefined) | 0.72 | 6.9 | -8 | . | -0.3 | . | -2 | . | . | .
O=C(CSC1=Nc2ccccc2C2CC=NN12)NCc1ccco1 (centres undefined) | 0.71 | 6.4 | -8 | i | -1.5 | -3.4 | . | -2 | -12 | 6.4
CN(C(=O)CSc1ncnc2scc(-c3ccccc3)c12)C1CCS(=O)(=O)C1 (centres undefined) | 0.7 | -1.0 | 0 | i | 0.1 | -0.7 | 9 | -12 | -18 | -5.3
Cc1cccc(/C(N)=N/OC(=O)COc2ccc(Cl)cc2)c1 | 0.68 | -0.8 | -4 | i | 0.0 | 0.5 | 3 | 5 | 7 | -1.8
COc1ccc(CCN2CCCn3c2nc2c3c(=O)n(CC(C)C)c(=O)n2C)cc1OC | 0.63 | 3.3 | 5 | i | 0.9 | 1.3 | 16 | -2 | -6 | -1.9
NC(=O)c1ccc(NC(=O)COC(=O)C2CC(=O)N(Cc3ccccc3)C2)cc1 (centres undefined) | 0.72 | -2.6 | 5 | i | 0.4 | 0.8 | -17 | 11 | 7 | -0.4
Cc1cccc2sc(NC(=O)CSCc3ccccc3)nc12 | 0.72 | 2.9 | -7 | . | -0.2 | . | 23 | . | . | .
COc1cc2nc(=S)n3[nH]c(CCn4nc(C)cc4C)nc3c2cc1OC | 0.75 | 8.1 | . | . | -0.9 | . | 41 | . | . | .
O=C(Cc1ccccc1)c1c[nH]c(C(=O)NCCCN2CCOCC2)c1 | 0.71 | 6.6 | -10 | i | 0.1 | 1.9 | -17 | 7 | 8 | 2.0
COC(=O)[C@H](Cc1ccccc1)NC(=O)Cn1cnc2c(OCc3ccccc3)ncnc21 | 0.68 | 0.3 | 0 | i | -0.1 | -2.7 | . | -8 | -9 | 4.2
CCSc1nnc(Nc2ccc(C)cc2)s1 | 0.69 | 3.0 | -9 | . | -0.3 | . | 7 | . | . | .
Cc1ccsc1/C=C1/SC(N2CC(C)OC(C)C2)=NC1=O (centres undefined) | 0.64 | 13 | -2 | . | 1.1 | . | -3 | . | . | .
CCn1c(N2CCN(CC(=O)c3c[nH]c4ccccc34)CC2)nc2c1c(=O)[nH]c(=O)n2C | 0.7 | 2.2 | -5 | . | 0.2 | . | -10 | . | . | .
COc1cccc(C(=O)N2CCN(C(=O)c3cccc(F)c3)CC2)c1 | 0.7 | -2.0 | -6 | . | -0.2 | . | 3 | . | . | .
O=C1CC2(CCN(C(=O)C3CC(=O)N(c4ccc(F)cc4)C3)CC2)Oc2ccccc21 (centres undefined) | 0.69 | -36 | . | i | -0.4 | -0.1 | 4 | -1 | 1 | -0.9
CCNC(=O)C(CC(C)C)NC(=O)C(CO)NC(=O)C1CCC(=O)N1 (centres undefined) | 0.67 | -0.2 | -3 | i | 0.1 | 5.8 | 1 | 14 | 5 | -4.1
COc1cc(Nc2nc(-c3ccccc3)c3cc(C)ccc3n2)cc(OC)c1OC | 0.74 | 1.5 | 7 | . | 0.7 | . | 26 | . | . | .
CN(CC(=O)Nc1c(Cl)cccc1Cl)C(=O)c1ccccc1Cc1ccccc1 | 0.62 | 2.2 | -6 | . | 0.6 | 2.2 | 7 | -13 | -25 | 2.6
CCOC(=O)C1=C(COC(=O)CCOc2ccccc2C)NC(=O)NC1C (centres undefined) | 0.6 | 1.2 | -9 | i | -0.8 | -7.0 | -16 | 3 | 8 | -0.7
CCCCOc1c(Cl)cc(C(=O)N2CCN(CC(=O)N3CCCC3)CC2)cc1OCC | 0.68 | -0.2 | . | i | . | -4.4 | . | 0 | 0 | -2.3
CC(=O)C1=C(O)C(=O)N(Cc2ccccc2)C1c1ccc([N+](=O)[O-])cc1 (centres undefined) | . | . | -2 | i | 0.1 | 4.0 | -11 | 3 | 8 | -0.8
COc1ccccc1CNC(=O)CN1C(=O)NC(Cc2ccccc2)(c2ccccc2)C1=O (centres undefined) | 0.62 | 2.6 | -3 | i | 0.5 | -2.4 | . | -37 | -42 | -3.6
COc1ccc(/C(=C/c2ccc(OC(F)F)c(OC)c2)C(=O)O)cc1OC | 0.68 | 2.9 | -6 | . | 0.2 | . | -1 | . | . | .
Nc1nc(-c2cccs2)cs1 | 0.69 | -0.4 | . | . | -0.9 | . | 3 | . | . | .
CC(=O)c1ccccc1C(=O)N1CCC(n2nccc2NC(=O)C2CC2)CC1 | 0.7 | 0.5 | -26 | i | 0.3 | -0.3 | -5 | 6 | 12 | -1.5
Cc1cc(Cl)c(S(=O)(=O)NC(C(=O)O)c2ccccc2)cc1OCC(N)=O (centres undefined) | 0.68 | 0.4 | -1 | . | -0.6 | . | 8 | . | . | .
O=C(c1ccc(S(=O)(=O)N2CCC(c3nc4ccccc4s3)CC2)cc1)N1CCOCC1 | 0.7 | 1.5 | 6 | . | 1.4 | . | -5 | . | . | .
CC1NC(C)c2c(ccc3ccccc23)O1 (centres undefined) | 0.63 | -39 | . | i | . | 1.6 | . | -3 | -14 | 6.1
COCCCNC(=O)CCC(=O)Nc1ccc2nc(N3CCOCC3)cc(C)c2c1 | 0.69 | -376 | 0 | . | 1.7 | . | 11 | . | . | .
COc1ccc(-c2nn(-c3ccccc3)cc2/C=C(\C#N)C(N)=O)cc1[N+](=O)[O-] | 0.67 | -1.2 | -4 | i | -1.3 | -0.2 | 9 | 3 | 16 | -1.8
COCCn1c(SCC(=O)N(C)C2CCS(=O)(=O)C2)nc2ccccc2c1=O (centres undefined) | 0.73 | 1.3 | 6 | i | -0.8 | -1.7 | -2 | 4 | 2 | -2.8
O=C(Cc1cccs1)NNC(=S)NC(=O)c1ccc(F)c(F)c1 | 0.66 | -22 | -12 | . | -0.8 | . | -17 | . | . | .
CCc1ccc(N/C(N)=N/c2nc(CSc3ncccn3)cc(=O)[nH]2)cc1 | 0.67 | 5.9 | 15 | . | 1.7 | -2.9 | -9 | 26 | 20 | 2.6
CN1CCOc2cc(S(=O)(=O)Nc3ccc(F)cc3)ccc21 | 0.76 | 4.0 | 7 | . | 0.1 | . | -4 | . | . | .
O=S(=O)(NCCS(=O)(=O)N1CCN(c2ccccc2)CC1)c1ccccc1 | 0.68 | 1.8 | 3 | i | -0.3 | -3.5 | 7 | -1 | -1 | -0.3
COc1ccc(CC(NC(C)=O)C(=O)N2CCN(C(=O)Nc3cccc(Cl)c3)CC2)cc1OC (centres undefined) | 0.74 | 8.1 | -6 | . | -0.1 | . | -4 | . | . | .
Cc1ccc(NC(=O)c2cc([N+](=O)[O-])ccc2N2CCOCC2)cc1S(=O)(=O)N(C)C | 0.68 | 8.9 | 8 | i | 0.1 | -2.9 | 5 | -14 | -9 | -4.1
COc1ccc2c(C)cc(SCC(=O)NC3CCCC3)nc2c1 | 0.68 | 0.0 | 3 | i | -0.1 | -6.1 | . | 0 | 1 | -0.1
Cc1cc(NC(=O)CCN2C(=O)C3C4CCC(C4)C3C2=O)c(C)cc1Br (centres undefined) | 0.71 | 4.0 | 1 | . | 0.2 | . | -9 | . | . | .
Cc1ccc(CN2CCN(c3ncccn3)CC2)c(C)c1 | 0.65 | 1.1 | 2 | i | -1.9 | -1.4 | 1 | -3 | -1 | -8.0
CCOC(=O)C1CCCN(C(=O)c2ccc3oc(CCc4ccccc4)nc3c2)C1 (centres undefined) | 0.71 | 2.9 | -1 | i | -0.6 | -2.1 | -23 | -29* | -22* | -3.0*
Cc1nc(N)nc(Nc2ccc(C#N)cc2)c1Br | 0.66 | 5.5 | 10 | i | -0.4 | 2.9 | -3 | 7 | 5 | 2.7
CCc1noc(C)c1C(=O)N1CCN(S(=O)(=O)c2ccc(Br)cc2Cl)CC1 | 0.68 | 2.6 | 3 | i | 0.7 | -0.9 | -6 | -1 | 8 | 5.4
Cn1cnc2c(ncn2C2OC(CO)C(O)C2O)c1=S (centres undefined) | 0.65 | 3.2 | . | . | . | 0.5 | . | 8 | 9 | 2.7
COc1cccc(N2CC(=O)Nc3c(oc4nc(-c5ccccc5)cc(C)c34)C2=O)c1 | 0.7 | 3.6 | -1 | i | 0.6 | -10 | 14 | 8 | 2 | 0.1
Cc1cccc(C(=O)OCC(=O)Nc2c(C)n(C)n(-c3ccccc3)c2=O)c1 | 0.67 | 2.4 | -2 | i | 0.2 | -2.0 | . | . | . | .
COc1ccc(-c2ccc(C(C)=O)cc2)cc1[C@H]1[C@@H]2C=CCC[C@@]2(C)C(=O)N1Cc1ccccc1 | . | . | 13 | i | 0.7 | -1.4 | . | 10 | 13 | -1.0
O=C(O)CC(NC(=O)OCc1ccccc1)c1ccc(Br)cc1 (centres undefined) | 0.74 | -2.6 | -3 | . | 0.7 | . | 4 | . | . | .
